NS1 inh: blocks influenza NS1 protein function | S. cerevisiae slowed by influenza A NS1, growth recovery by OD600 | Potency, µM (series often up to 46.1 µM), for inactives: top-dose activity, positive = more growth | hit rate 0.4% among 270,000 | AID 2326; active means well fitted rising curve with a large enough effect; inconclusive means small, poorly fitted or top-dose-only effect; inactive means no such curve, though single readings can be large or run the other way; also: nearly all actives have a fitted effect of over 50% in size
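Growth recovery, yeast-based: influenza A NS1 expressed in S. cerevisiae causes slow growth, and suppressors are detected by OD600. The parent strain without NS1 is used as positive control.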
StopGo reporter: FMDV 2A StopGo reporter, luciferase signal; Potency, µM (doses to about 57.9 µM), for the others: top-dose signal change, negative = less light; human cells with a luciferase reporter of 2A StopGo recoding; control for the full effect not named in the record; hit rate 1.2% among 410,000; active = well fitted falling curve with a large enough effect; inconclusive = small, poorly fitted or top-dose-only effect; inactive = no such curve, though single readings can be large or run the other way; tested in HEK293T cells; also: % is scaled to controls: 0 for no effect and ±100 for the full control effect; nearly all actives have a fitted effect of over 45% in size; luciferase light after 4 h
Lassa entry inh: Lassa virus entry inhibition; Lassa virus pseudotype entry inhibition, cell reporter; control for the full effect not named in the record; Potency, µM (highest dose often 37.9 µM), for the others: top-dose activity change, negative = inhibition, hits mostly inhibitors; hit rate 1.2% among 300,000; AID 540256; active means well fitted inhibition curve with a large enough effect; inconclusive means small, poorly fitted or top-dose-only effect, or effect the other way; inactive means flat fitted curve, though single readings scatter; tested in HEK293 cells; also: % is scaled to controls: 0 for no effect and ±100 for the full control effect; nearly all actives have a fitted effect of over 50% in size; luciferase read-out
Marburg entry inh: Marburg virus entry inhibition; hit rate 1.8% among 300,000; Marburg virus pseudotyped entry inhibition, cell reporter; control for the full effect not named in the record; about a third of the inactives were read at about 46 µM; Potency, µM (series often up to 37.8 µM), without a hit: at the top dose activity change, negative = inhibition, usual class: inhibitors; active = well fitted inhibition curve with a large enough effect; inconclusive = small, poorly fitted or top-dose-only effect, or effect the other way; inactive = flat fitted curve, though single readings scatter; tested in HEK293 cells; about a fifth of its hits are not listed in these tables; also: % is scaled to controls: 0 for no effect and ±100 for the full control effect; luciferase read-out
SARS PLP yeast: blocks SARS-CoV papain-like protease in a yeast assay. hit rate 0.19% among 330,000. AID 485353. Potency, µM (titrated, usually from 32.9 µM), inactives show at the top dose activity, positive = growth rescue. S. cerevisiae expressing SARS-CoV PLpro, growth rescue; control for the full effect not named in the record; active means well fitted rising curve with a large enough effect; inconclusive means small, poorly fitted or top-dose-only effect; inactive means no such curve, though single readings can be large or run the other way; also: 0% is about no effect; nearly all actives have a fitted effect of over 55% in size; growth read by luminescence after 48 h
Cruzain inh noDet: blocks cruzain activity in detergent-free assay; Potency, µM, for the others: max response, negative = inhibition, hits mostly inhibitors; hit rate 2.3% among 200,000; P25779; purified cruzain, Z-FR-AMC fluorescence, no detergent;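 also: plate controls were enzyme without inhibitor for no effect and buffer without enzyme for full effect; nearly all actives have a fitted effect of over 40% in size; top concentration of the series not given in the record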
Target sequence (P25779 123-467 limits assumed): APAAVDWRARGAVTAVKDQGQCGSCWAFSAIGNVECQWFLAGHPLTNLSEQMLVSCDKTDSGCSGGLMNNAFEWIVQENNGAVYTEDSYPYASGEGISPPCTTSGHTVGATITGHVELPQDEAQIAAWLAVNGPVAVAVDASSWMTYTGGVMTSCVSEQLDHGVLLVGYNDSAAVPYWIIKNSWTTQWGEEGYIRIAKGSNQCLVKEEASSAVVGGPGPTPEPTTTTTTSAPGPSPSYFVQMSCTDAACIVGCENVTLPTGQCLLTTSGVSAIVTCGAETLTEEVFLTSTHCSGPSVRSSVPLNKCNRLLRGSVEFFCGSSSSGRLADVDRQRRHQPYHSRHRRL
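Purified cruzain at 1.5 nM, pre-incubated 15 min with compound at room temperature in 100 mM sodium acetate pH 5.5, 5 mM DTT, 0.00005% Triton X-100. Reaction started with 2 uM Z-FR-AMC; AMC fluorescence increase over 60 s gives rate.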
Cruzain Triton: cruzain (T. cruzi) inhibition with detergent | purified cruzain, Z-FR-AMC fluorescence, 0.01% Triton | P25779 | hit rate 0.43% among 200,000 | Potency, µM, inactives show max response, negative = inhibition, hits mostly inhibitors;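 also: plate controls were neutral wells for no effect and buffer without enzyme for full effect; nearly all actives have a fitted effect of over 40% in size; top concentration of the series not given in the record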
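Detergent-containing run (0.01% Triton X-100) in acetate buffer pH 5.5 with 5 mM DTT: enzyme at 1.5 nM final, 15 min compound preincubation at room temperature, then 2 uM Z-FR-AMC substrate. Activity taken as 60 s fluorescence increase at 360/450 nm.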
RE007 growth inh: less growth of the S. pombe RE007 Vpr strain | hit rate 0.21% among 360,000 | Potency, µM (series often up to 92.2 µM), inactives show top-dose activity change, negative = less growth | S. pombe RE007 Vpr strain, BacTiter-Glo ATP luminescence, 24 h; control for the full effect not named in the record; active = well fitted falling curve with a large enough effect; inconclusive = small, poorly fitted or top-dose-only effect; inactive = no such curve, though single readings can be large or run the other way;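 also: % is scaled to controls: 0 for no effect and ±100 for the full control effect; nearly all actives have a fitted effect of over 50% in size; the assay follows cell death caused by Vpr and the record does not say whether a fall means rescue or toxicity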
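Fission yeast RE007 carrying one integrated HIV-1 vpr copy, seeded at OD 0.01 in PMG+AL medium with 23 nL pinned compound. Grown 24 h at 30 degrees; viability read by BacTiter-Glo luminescence after 5 min.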
Active calls of the source: *; ? = inconclusive; . = no result given; & = joins results of further samples; [ ] = remark or other dose. Unless noted, calls follow the shape of the dose curve; as a rule, active = well fitted curve in the direction sought with a large enough effect; inconclusive = small, poorly fitted or top-dose-only effect, or another doubt; inactive = no such curve, though single readings can be large; an effect the other way counts as inactive or inconclusive. Potency is read from the fitted curve at half-maximal effect.

SMILES	NS1 inh	StopGo reporter	Lassa entry inh	Marburg entry inh	SARS PLP yeast	Cruzain inh noDet	Cruzain Triton	RE007 growth inh
CCCCC/C(=N\NC(=O)CCC(=O)NCc1ccccc1)c1ccccc1	-2%	-23%	?	?	0%	-10%	-2.3%	6%
O=C(Cc1ccccc1)N1CCN(CCCc2ccccc2)CC1	9%	-21%	-11%	-1%	2%	.	.	-9%
c1ccc(Nc2nc(N3CCCC3)nc(N3CCCC3)n2)cc1	-32%	-27%	?	?	-7%	-15%	-11%	-10%
CCC(=O)n1nc(-c2ccccc2)nc1N	-14%	-8%	10%	0%	2%	9%	-1.9%	-6%
Cc1ccc(C(=O)CCC(=O)OCC(=O)N(CC(C)C)c2c(N)n(Cc3ccccc3)c(=O)[nH]c2=O)cc1	.	-3%	15%[46.1 µM]	-3%	2%	.	.	-5%
O=C(O)CCCNC(=O)/C(=C\c1ccc(Cl)cc1)NC(=O)c1ccc(Br)cc1	-8%	9%	10%[46.1 µM]	12%[46.1 µM]	1%	.	.	-7%
CCNC(=O)c1c(C)oc2ncn(C)c(=O)c12	.	0%	3%[46.1 µM]	.	.	4%	-2.8%	.
O=C(Nc1ccc(F)cc1F)c1cccnc1Oc1cccc(C(F)(F)F)c1	-1%	-19%	-13%	-12%&-12%	9%	1%	1.5%	4%
Nc1ccn(C2OC(COC(=O)C34CC5CC(CC(C5)C3)C4)C(O)C2O)c(=O)n1 (stereo unspecified)	.	-12%	4%	-8%	.	.	.	10%
COc1ccc(C(=O)/C=C(\N)C(F)(F)F)c(O)c1	-7%	10%	10%	6%	0%	-7%	-6.0%	-7%
CN(C)S(=O)(=O)n1cc(/C=C(\NC(=O)c2ccccc2)C(=O)N2CCOCC2)c2ccccc21	11%	-8%	.	.	10%	.	.	1%
CC(=O)c1ccc(NC(=O)CNCc2cccs2)cc1	0%	55%[activator]	.	.	0%	.	.	1%
COC(=O)C1=C(C)N(Cc2ccco2)C(=O)N[C@H]1c1ccccc1	-13%	.	-2%	-5%&-5%&-5%	4%	-8%&-7%	1.6%&-5.4%	.
CS(=O)(=O)N1N=C(c2ccco2)CC1c1ccc(Cl)cc1Cl (stereo unspecified)	-2%	-6%	.	.	1%	.	.	23%
Cc1ccc(CNC(=O)C(=O)NCC(c2ccco2)N2CCOCC2)cc1 (stereo unspecified)	1%	-5%	2%	2%	7%	8%	5.2%	8%
C/C(=N\Nc1ccc(Cl)c(C(=O)O)c1)c1cccc2ccccc12	9%	8%	3%[46.1 µM]	27%[46.1 µM]	-1%	.	.	10%
C[N+](C)(C)CCN(Cc1ccc(Cl)cc1)c1ccccn1	19%	2%	-1%	?	5%	-6%	5.9%	-10%
O=C(NNC(=O)c1sccc1-n1cccc1)c1ccc(F)cc1	3%	-9%	-1%	-7%	0%	.	.	-2%
COc1cc2c(cc1NC(=S)NC(=O)c1c(OC)cccc1OC)oc1ccccc12	10%	11%	.	-10%	0%	6.3µM*	-4.5%	-1%
C[n+]1ccccc1N1CCN(c2ccccc2Cl)CC1	-3%	-29%	10%	-4%	5%	-10%	0.6%	-10%
O=C(C1=C(O)/C(=C/c2ccc(O)cc2)CCC1)C(F)(F)F	0%	-7%	-4%	10%	-56%	-13%	-22%	?
CC(C)COC(=O)N1C[C@H](O)C[C@H]1C(=O)Nc1ccc(Cl)cc1	1%	-12%	0%	?	-2%	.	.	6%
CCOC(=O)c1c(NC(=O)COC(=O)CCCOc2ccc(OC)cc2)sc(C(=O)N(C)C)c1C	.	0%	9%	17%	.	.	.	21%
CC(C)N(CC#CCC1(O)c2ccccc2-c2ccccc21)C(C)C	-11%	-14%	?	-5%	-11%	-8%	0.4%	3%
Cc1ccc(C)c(NS(=O)(=O)c2cc(C(=O)Nc3cccc(N(C)S(C)(=O)=O)c3)ccc2C)c1	0%	-57%	-22%	-29%	5%	-4%	-1.9%	1%
CCC(C)NC(=O)CSCc1nc(-c2ccc(C)cc2)oc1C (stereo unspecified)	.	-11%	?	1%[46.1 µM]	.	-15%	0.8%	.
CC(C)(C)OC(=O)N1CC(O)CC1C(=O)OCC(=O)c1ccccc1 (stereo unspecified)	-6%	-17%	13%	?	-2%	15%	1.8%	-12%
CN(C)S(=O)(=O)c1cccc(COC(=O)c2ccc(Cl)cc2O)c1	1%	13%	.	.	-6%	.	.	5%
O=C(Nc1ccc(Cl)cc1)N1CCc2[nH]c3ccccc3c2C1	6%	-10%	2%	1%	-3%	2%	-5.3%	9%
CCOC(=O)CSc1nc2sc(C)c(C)c2c(=O)n1N	0%	-14%	-3%	-20%	3%	-9%	-1.5%	4%
Cc1ccc(Cn2ccc(=O)c(Cc3c(Cl)cccc3Cl)c2C)cc1	-34%	-16%	-11%	-8%	0%	2%	-5.5%	31%
Nc1nonc1OCCCCOc1nonc1N	.	1%	12%	27%[46.1 µM]	-1%	.	.	-3%
c1ccc(CN(Cc2cccs2)C(c2cccs2)c2nnnn2C2CCCC2)cc1 (stereo unspecified)	0%	-3%	-16%	?	-24%	-7%	-0.1%	2%
COc1ccc2ccccc2c1/C=N\NC(=O)c1ccc(C)s1	-11%	0%	7%[46.1 µM]	-21%[46.1 µM]	-5%	.	.	9%
CCCCn1c(N)c(N(CCOC)C(=O)CSCc2ccccc2C)c(=O)[nH]c1=O	.	-7%	3%	13%	1%	.	.	-4%
O=C(Nc1cccc(Cl)c1)c1cnc[nH]1	-5%	0%&70%	?	?	-1%	0%	-0.9%	4%
C=CCc1cc(Cl)ccc1OCCNCCOC	.	-16%	20%	15%[46.1 µM]	-2%	.	.	-6%
O=C(c1cnccn1)N(Cc1ccco1)C1(C(=O)NC2CCCC2)CCCCC1	-3%	-9%	6%	?	3%	-11%	3.1%	-14%
O=C(C1CCC(=O)N1Cc1ccccc1Cl)N1CCN(c2ccc(F)cc2)CC1 (stereo unspecified)	-4%	15%	-21%	7%	6%	?	1.8%	7%
COc1cccc(NC(=O)C2CCCN2S(=O)(=O)c2ccc3c(c2)C(C)(C)C(=O)N3C)c1 (stereo unspecified)	-25%	-28%&-10%	25%[46.1 µM]	.	3%	16%	-2.1%	5%
COC(=O)c1c(NC(=O)C2c3ccccc3Oc3ccccc32)sc2c1CCC(C(C)(C)C)C2 (stereo unspecified)	.	0%	-5%[46.1 µM]	?	.	?	-1.9%	.
Cc1cc(C)c(C#N)c(SCC(=O)Nc2nnc(-c3ccccc3)s2)n1	2%	5%	-3%	-2%[46.1 µM]	0%	-4%	-2.6%	4%
CC(=O)Nc1nccc(-c2cc(-c3ccccc3)no2)n1	-9%	67%[activator]	.	.	-1%	.	.	-22%
Cc1cccc(NC(=O)COc2ccccc2C)n1	-7%	53%[activator]	?	?	-3%	10%	-2.9%	-7%
CCN1C(=O)/C(=C\c2ccc(F)cc2)N=C1SCC(=O)NCc1ccco1	3%	-21%	-2%	-6%	4%	-16%	-1.6%	2%
O=C(O)CCN1C(=O)c2ccc(Oc3ccc4c(c3)C(=O)N(CCC(=O)O)C4=O)cc2C1=O	10%	-4%	-10%	?	-7%	-7%	-2.7%	21%
CCCn1c(=O)c(C(=O)Nc2ccccc2C(=O)OC)c(O)c2ccccc21	2%	10%	27%	14%	-5%	?	-3.4%	8%
O=C(NC1CCCCC1)C(c1ccncc1)N(Cc1ccc(F)cc1)C(=O)c1ccccn1 (stereo unspecified)	5%	0%	.	.	?	.	.	-3%
COc1ccc(CC(=O)N2CC3(C)CC2CC(C)(C)C3)cc1OC (stereo unspecified)	0%	1%	-8%	-30%	1%	?	0.9%	-4%
Cc1nc2c(C(=O)N3CCOCC3)cnn2c(C)c1Cc1cccc(Cl)c1	-10%	.	.	0%	-1%	8%	2.2%	.
COC1=CC(=Cc2c(N)n3nc(CC(=O)N4CCOCC4)sc3nc2=O)C=C(OC)C1=O	14%	3%	-5%	13%[46.1 µM]	4%	.	.	0%
COc1ccc(CCNc2oc(COc3ccc(Br)cc3)nc2C#N)cc1OC	-52%	32µM*	.	.	-2%	?	-7.7%	-2%
Cc1ccc(N2CC(C(=O)Nc3ccc4c(c3)OCCO4)CC2=O)cc1 (stereo unspecified)	12%	.	-2%	4%	0%	1%	-3.6%	-10%
CCN(C(=O)c1ccc2c(Cl)c3c(nc2c1)CCC3)c1cccc(C)c1	-1%	.	?	?	-2%	?	-6.3%	.
CS(=O)(=O)N1Cc2ccccc2CC1C(=O)OCC(=O)NCc1ccccc1 (stereo unspecified)	.	-25%	9%	4%	-1%	.	.	8%
Cc1ccc2nc(SCn3nnc4ccccc4c3=O)[nH]c2c1	15%	17%	?	?	1%	0%	-14%	0%
O=C(COc1ccccc1F)OCc1cc(=O)n2nc(C3CC3)sc2n1	.	0%	-15%[46.1 µM]	.	.	-1%	-1.2%	.
CCCCNC(C(=O)Nc1cccc(S(=O)(=O)N2CCOCC2)c1)c1ccccc1 (stereo unspecified)	.	2%	-18%	?	2%	.	.	-8%
CC(C)C1C(=O)Nc2ccc(S(=O)(=O)NCCc3ccc(Cl)cc3)cc21 (stereo unspecified)	.	-7%	7%[46.1 µM]	.	.	-2%	-6.6%	.
O=C(Cn1nnc(-c2cccs2)n1)NCc1ccco1	1%	-4%	.	.	2%	.	.	-4%

The list continues:
SMILES	NS1 inh	StopGo reporter	Lassa entry inh	Marburg entry inh	SARS PLP yeast	Cruzain inh noDet	Cruzain Triton	RE007 growth inh
C=CCC(C#Cc1ccc(C)cc1)N(CC)CC (stereo unspecified)	2%	?	-1%	?	1%	1%	0.6%	23%
COCCCNC(=O)c1[nH]c2ccccc2c1Sc1ccc(C)cc1	.	13%	6%[46.1 µM]	-19%[46.1 µM]	.	30%	-8.3%	.
CCN(CC1CCCO1)C(=O)c1cc(COc2ccc(OC)cc2Cl)on1 (stereo unspecified)	-6%	15%	.	.	4%	.	.	-2%
CCc1ccc(NC(=O)CN2CCSc3ccc(S(=O)(=O)N4CCCC4)cc32)cc1	.	?	?	.	.	-26%	-7.5%	.
